Screening data: PubChem BioAssay, National Center for Advancing Translational Sciences (NCATS)
VDR inhibitor: inhibitors of human vitamin D receptor | P11473 | VDR-SRC2-3 peptide fluorescence polarization, 2 h | Potency, µM, for the others: max response, negative = inhibition, most hits filed as inhibitors | 0.93% of 400,000 active | AID 504847; active = well fitted inhibition curve with a large enough effect; inconclusive = small, poorly fitted or top-dose-only effect, or another doubt; inactive = no such curve, though single readings can be large or run the other way; note: series mostly up to about 120 µM
Target sequence (P11473 whole entry, looked up): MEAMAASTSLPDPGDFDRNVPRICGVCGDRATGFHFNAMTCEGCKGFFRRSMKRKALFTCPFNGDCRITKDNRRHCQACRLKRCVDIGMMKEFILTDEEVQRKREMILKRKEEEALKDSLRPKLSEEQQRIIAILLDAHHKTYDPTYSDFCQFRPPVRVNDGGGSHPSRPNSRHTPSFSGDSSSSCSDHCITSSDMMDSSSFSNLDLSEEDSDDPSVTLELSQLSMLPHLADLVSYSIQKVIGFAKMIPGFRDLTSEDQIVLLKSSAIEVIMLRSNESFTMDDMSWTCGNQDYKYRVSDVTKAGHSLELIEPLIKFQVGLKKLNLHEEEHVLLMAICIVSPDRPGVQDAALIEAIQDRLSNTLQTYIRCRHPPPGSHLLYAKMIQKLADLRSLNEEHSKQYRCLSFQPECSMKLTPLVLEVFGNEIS
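Two reagent solutions held at 4 deg C in the dark were dispensed, compounds pinned at 23 nl, and the mixture incubated 2 h at room temperature. Read-out: fluorescence polarization of VDR–SRC2-3 peptide binding.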
An asterisk follows results filed as active; ? = inconclusive; & = joins results of further samples. % is set by controls: 0 for no effect and ±100 for the full control effect; potency is the fitted concentration of half-maximal effect. Only part of the results is shown. The share of hits here may be higher or lower than overall.

VDR inhibitor,SMILES
-27%,CCc1cccc(CC)c1NC(=O)C1CCN(C(=O)c2ccco2)CC1
-4%,COC(=O)C(Cc1ccccc1)NC(=O)CC(C)CC(=O)Nc1ccc(OC)cc1OC (stereo not given)
-10%,CC(=O)Nc1ccc(Sc2ccccc2C(=O)Nc2ccc(F)cc2)cn1
2%,CCn1cc(C(=O)O)c(=O)c2cc(F)c(N/N=C/c3ccccc3)cc21
0%,COc1ccc(/C=C/C(=O)OCC(=O)NC2CCCCCC2)cc1OC
-1%,CN1CCC(OC(=O)c2ccc(Cl)cc2Cl)CC1
-10%,Cc1ccc(S(=O)(=O)CCC(=O)OCC(=O)NCc2ccc(Cl)cc2)cc1
-4%,Cc1c(C(=O)Nc2c(F)cccc2F)sc2ncnc(N3CCN(c4ccccc4)CC3)c12
-6%,CO/N=C(\C)C(Cc1ccc(Cl)nc1)Cc1ccc(Cl)nc1
-7%,O=C(C=Cc1ccco1)c1ccco1
-9%,Cc1ccc(O)c(-c2cc(C(F)(F)F)[nH]n2)c1
-21%,COc1c2ccoc2nc2c(OC)c(OCC(OC(C)=O)C(C)(C)O)ccc12 (stereo not given)
-23%,Cn1cnnc1SCC(=O)N1CCN(C(=O)c2ccco2)CC1
-5%,COc1ccc(-c2nnc(Nc3nc4c(OC)cccc4s3)o2)cc1
12%,COC(=O)c1ccc(Cl)c(NC(=O)CN(c2ccc3c(c2)OCO3)S(C)(=O)=O)c1
?,O=C(NC(NC(=S)Nc1ccccc1C(=O)O)C(Cl)(Cl)Cl)c1ccco1 (stereo not given)
-10%,COCCN(C(=O)CSc1nnc(-c2ccc(C)c(C)c2)o1)c1c(N)n(CC(C)C)c(=O)[nH]c1=O
9%,N/C(COc1cc(Cl)cc(Cl)c1)=N\O
?,CCC(=O)OCCNc1cc(Sc2nc3ccccc3[nH]2)c2nonc2c1[N+](=O)[O-]
16%,CC(=O)c1cccc(N(CC(=O)Nc2ccccc2F)S(C)(=O)=O)c1
-14%,CCOc1ccc(Br)cc1S(=O)(=O)NC1CC(C)(C)NC(C)(C)C1
10%,CCC(NC(=O)c1[nH]c(C)c(C(C)=O)c1C)c1ccc(Br)cc1 (stereo not given)
8%&1%&3%,CC(C)NCC(O)COc1ccc(CCOCC2CC2)cc1 (stereo not given)
0%,CCOc1cc2[nH]c(=O)n(CCCCCC(=O)NC3CCCC3)c(=O)c2cc1OCC
-12%,CCCc1cc(=O)oc2c(C)c(OCC(=O)NCCN3CCOCC3)ccc12
4%,OC(CNC1Cc2ccccc2C1)COc1ccc(F)cc1 (stereo not given)
-8%,O=C(O)c1ccccc1C(=O)Nc1ccc(Oc2cccc(C(F)(F)F)c2)nc1
21%,COc1ccc(Cc2nc3ccc(C(=O)NCc4ncc(C)[nH]4)cc3o2)cc1OC
-3%,CS(=O)(=O)N(CC(=O)Nc1ccc2c(c1)OCO2)c1ccccc1
-14%,NC1=NC(c2ccccc2)=NC1(NC(=O)c1ccccc1)C(Cl)Cl (stereo not given)
-8%,O=C(CN1CCCC1)Nc1ccc(OCc2ccccc2)cc1
-27%,O=C(Nc1ccccn1)c1cc(-c2cccnc2)nc2ccc(Br)cc12
-3%,O=C(O)c1ccc(COc2c(F)c(F)cc(F)c2F)o1
-10%,Cc1cc(S(=O)(=O)Nc2ccc(C(=O)NCC(c3ccco3)N(C)C)cc2)ccc1F (stereo not given)
7%,Cc1ccc(CO/N=C/c2c(O)cc(C)oc2=O)cc1
-23%,CC(=O)c1ccccc1Oc1cc(NN2CCCCC2)c([N+](=O)[O-])cc1[N+](=O)[O-]
-17%,O=C(CCn1c(=O)oc2ccccc21)N(Cc1ccccc1)c1ccccc1
9%,Cc1cc(C)cc(OCC(=O)NCC2(N3CCOCC3)CCCCC2)c1
-14%,Cc1cccc(CCNC(=O)c2cc3c(s2)-c2c(C)cccc2OC3)c1
7%,COc1ccc(C(=O)Nc2ccc(CN3CCCCC3)cc2)cc1
-12%,N#CCCN(C(=O)COC(=O)CCc1ccccc1)c1ccccc1
-9%,O=C1CC(c2ccco2)CC2=C1C(c1ccc(O)cc1)n1nc(C(F)(F)F)nc1N2 (stereo not given)
2%,O=C(c1ccc(NC2=NC3CS(=O)(=O)CC3S2)cc1)N1CCN(Cc2ccccc2)CC1 (stereo not given)
-5%,C=CCN1C(=O)/C(=C2/Sc3ccc(OC)cc3N2C)SC1=Nc1ccccc1
0%,O=C(O)c1ccccc1C(=O)NC1Cc2ccccc2C1
6%,COCCCNC(=O)N1c2ccccc2Sc2ccccc21
-13%,O=C(COC(=O)c1cc(Cl)nc(Cl)c1)NCCc1ccc(F)cc1
-14%,O=C(Cn1ncc2c(=O)oc3ccccc3c21)NCc1ccccc1Cl
1%,CSc1ccc(CCNC(=O)CCc2nnc3ccc(NCCCN4CCCC4=O)nn23)cc1
0%,CC(Sc1nnc(N)s1)C(=O)Nc1ccc2c(c1)OCCO2 (stereo not given)
12%,CCN(Cc1ccc2c(c1)OCO2)C(=O)CSc1ncnc2sccc12
-7%,O=C(CSc1ccc(C(F)(F)F)cn1)Nc1ccccc1
7%,COc1cccc(Oc2ccc(S(=O)(=O)N3CCOCC3)cc2[N+](=O)[O-])c1
?,CCN(Cc1ccccc1)C(=O)CCc1nnc(CCCc2ccccc2)o1
4%,C[C@]1(C(=O)NCCc2c[nH]c3ccccc23)C=C[C@@H](Cc2ccccc2)N1C(=O)c1ccccc1
6%,CC(C)CC(=O)c1c[nH]c(C(=O)NCCc2ccccn2)c1
5%,COc1ccc2[nH]c(-c3ccc(C)cc3)cc(=O)c2c1
-10%,CN=c1scc(-c2ccccc2F)n1/N=C(\C)c1cccnc1
-19%,O=C(OCC(=O)N1CCN(C(=O)c2ccco2)CC1)c1c(Cl)cccc1Cl
-1%,CC(C)C[C@@H](CC(=O)N[C@@H](CCCN)CC(=O)N[C@@H]1CCNC[C@H]1C(=O)N[C@H](CC(=O)N[C@@H](CCC(=O)O)CC(=O)O)CC(C)C)NC(=O)[C@@H]1CCCC[C@H]1N

Continuation:
VDR inhibitor,SMILES
-21%,COc1ccc(N(C)C(=O)c2ccc3c(Cl)c4c(nc3c2)CCCC4)c(OC)c1
4%,O=C(Nc1ccccc1N1CCOCC1)C1=COCCO1
12%,CCCN1C2=NCCCN2c2ccccc21
-4%,NC(=O)CC[C@H](NC(=O)OCc1ccccc1)C(=O)OCc1ccc(Cl)cc1
-7%,COc1ccccc1C1(CC(=O)Nc2nccs2)CCOC(C(C)C)C1 (stereo not given)
12%,O=C(NC(Cc1ccccc1)C(=O)O)/C(=C/c1ccc(Cl)cc1)NC(=O)c1ccco1 (stereo not given)
-12%,CC(C)C(NC(=O)C1CCC(C(C)(C)C)CC1)C(=O)NCCc1ccc(S(N)(=O)=O)cc1 (stereo not given)
-3%,Cc1nc([N+](=O)[O-])c(NCCCO)n1Cc1ccccc1
10%,O=C(CN1C(=O)S/C(=C\C=C\c2ccccc2)C1=O)N1CCOCC1
4%,CC1CCN(C(=O)C2COc3ccccc3O2)CC1 (stereo not given)
-6%,Cc1ccc(NC(=S)N(CCN2CCOCC2)Cc2ccccc2F)cc1Cl
-12%,COc1ccc(OCCSc2nnc(-c3ccoc3C)n2C)cc1
27%,CCCN1Cc2cccc(C(=O)NC(CC(=O)OCC)c3ccc(OCC)c(OC)c3)c2C1=O (stereo not given)
0%,COc1ccc(-c2cc(NCCc3ccncc3)n3ncnc3n2)cc1
-20%,NC(=O)C1CCN(CC(=O)Nc2cc(S(=O)(=O)N3CCOCC3)ccc2N2CCCC2)CC1
17%,CC(=O)Nc1ccc(N2CCC(C)CC2)c([N+](=O)[O-])c1
2%,N#CCCn1c(Cl)nc2ccccc21
9%,COc1ccccc1-n1c(CNC(=O)c2ccco2)nnc1SCC(=O)Nc1nccs1
-13%,CCc1cc(CNC(=O)C2CCC(=O)N(Cc3ccc(Cl)cc3)C2)on1 (stereo not given)
-11%&-7%,Cc1ccnc(NS(=O)(=O)c2ccc(N)cc2)n1
11%,CSc1ncc(C(=O)Nc2c(C)cccc2C)c(-c2ccccc2)n1
-11%,NNC(=S)Nc1ccc(Cl)cc1
0%,COCCNC(=O)/C(C#N)=C/c1c(N2CCN(c3ccccc3)CC2)nc2c(C)cccn2c1=O
-13%,Cc1cc(C)c2nc(-n3nc(C)cc3N)cc(C)c2c1
1%,O=C(O)c1cccc2cc(-c3ccccc3)oc(=O)c12
-6%,Clc1ccc(CN2CCC(c3ccccc3)CC2)cc1
-1%,C[C@H]1CN=C(Nc2ccccc2)N1CC1CCCCC1
-24%,Cc1ccc(/C=C2\Oc3c(ccc(O)c3CN3CCN(C)CC3)C2=O)cc1
7%,COc1cc(C(=O)Nc2ncccc2C)ccc1OCC(=O)N1CCOCC1
-4%,COc1ccc2c(c1)OCC(Cc1ccc(OC)c(OC)c1)C2=O (stereo not given)
4%,CC(=O)Nc1ccc(C(=O)N2CCN(C(=O)c3ccco3)CC2)cc1
5%,O=[N+]([O-])c1ccc(N2CCN(CC(O)COc3ccccc3)CC2)cc1 (stereo not given)
-21%,CCCN(Cc1nnc(-c2cccs2)o1)C(=O)c1cccc(S(=O)(=O)N2CCOCC2)c1
?,CCOC(=O)CNC(=O)c1ccc(C)cc1
13%,Cc1cccc(NC(=O)c2oc3ccccc3c2NC(=O)c2cc(=O)c3ccc(C)cc3o2)c1
4%,CCC(C(=O)OCC(=O)Nc1c(Cl)cc(Cl)cc1Cl)c1ccccc1 (stereo not given)
-9%,Cc1ccc(OCC(=O)NC2CCSc3ccccc32)cc1 (stereo not given)
-22%,CCCCN(C)CCNC(=O)CCn1nc(-c2ccc(C)cc2)ccc1=O
-9%,CC(C)c1ccc(C2/C(=C(\O)c3ccc4c(c3)OCCO4)C(=O)C(=O)N2CCN2CCOCC2)cc1 (stereo not given)
-8%,O=C(CCCn1c(=S)[nH]c2cc3c(cc2c1=O)OCO3)N1CCN(c2ccccc2)CC1
-19%,Cc1cc(C)c(NC(=O)CCCSc2nnc(N)s2)c(C)c1
-14%,COc1ccc(Cl)cc1NC(=O)c1c(NCc2ccc(C)o2)sc2c1CCCC2
-22%,Cc1cccc(CSc2nnc([C@@H]3CCCN3C(=O)OC(C)(C)C)o2)c1
6%,C=CCn1c(=O)c2c(C)c(C)sc2n2c(Nc3ccccc3)nnc12
-18%,COc1ccc(S(=O)(=O)N2CCCCC2)cc1NC(=O)c1[nH]c(C)c(C(C)=O)c1C
7%,O=C(O)CCN(Cc1ccccc1)S(=O)(=O)c1ccccc1Cl
0%,CCNC(=O)/C=C/c1ccccc1[N+](=O)[O-]
-3%,OC(CN1CCOCC1)Cn1c(-c2cccc(Cl)c2)nc2ccccc21 (stereo not given)
-12%,O=S(=O)(c1ccccc1)N1CCN(Cc2c(O)ccc3ccccc23)CC1
4%,O=S(=O)(Nc1cccc(-c2ccc(N3CCCCCC3)nn2)c1)c1ccc(C(F)(F)F)cc1
-13%,C=CCn1c(O)c(N=NC(=S)Nc2ccc(OC)cc2)c2ccccc21
4%,CCOC(=O)C(=NC(C)CC)NNc1ccc(Br)cc1 (stereo not given)
9%,CC(C)(C)NC(=O)c1cc(Cl)ccc1[N+](=O)[O-]
-10%,Oc1c(Br)cc(Br)cc1C=NCc1ccccc1
24%,CCc1nn(CC(=O)NC(C)CC)c(=O)c2cc3occc3n12 (stereo not given)
11%,Cc1ccc2nc(SCC3CCCCO3)[nH]c2c1 (stereo not given)
1%,CN1CCC(N(C)C(=O)c2ccccc2Nc2ccc(SC(F)F)cc2)CC1
10%,CCCOc1ccc(N2C(=O)CC(N3CCC(O)(c4cccc(C(F)(F)F)c4)CC3)C2=O)cc1 (stereo not given)
8%,Cc1ccc(/C=N/NC(=O)C(=O)N/N=C/c2ccc(C)o2)o1
10%&-4%,O=C(COC(=O)C12CC3CC(CC(C3)C1)C2)NCc1ccco1

An excerpt of these results, with each value named:
O=C(NC(NC(=S)Nc1ccccc1C(=O)O)C(Cl)(Cl)Cl)c1ccco1 (stereo not given)
  VDR inhibitor: ?

COCCN(C(=O)CSc1nnc(-c2ccc(C)c(C)c2)o1)c1c(N)n(CC(C)C)c(=O)[nH]c1=O
  VDR inhibitor: -10%

N/C(COc1cc(Cl)cc(Cl)c1)=N\O
  VDR inhibitor: 9%

CCC(=O)OCCNc1cc(Sc2nc3ccccc3[nH]2)c2nonc2c1[N+](=O)[O-]
  VDR inhibitor: ?

Three entries picked at random from the list so far:
VDR inhibitor,SMILES
-3%,OC(CN1CCOCC1)Cn1c(-c2cccc(Cl)c2)nc2ccccc21 (stereo not given)
-13%,C=CCn1c(O)c(N=NC(=S)Nc2ccc(OC)cc2)c2ccccc21
8%,Cc1ccc(/C=N/NC(=O)C(=O)N/N=C/c2ccc(C)o2)o1

The results go on:
VDR inhibitor,SMILES
-5%,CCOC(=O)C1CCN(CC(=O)c2c(C)[nH]c3ccccc23)CC1
5%,COc1cc2nc(C3CCC3)n(NC(=O)C3CCC(OC)CC3)c(=O)c2cc1OC (stereo not given)
-6%,CCn1c(C)c(C(C)=O)c(N2CCN(c3ccc(F)cc3)CC2)nc1=S
0%,COc1ccc(-c2cc(-c3cccs3)c(C#N)c(SCC(=O)NCc3ccccc3OC)n2)cc1
2%&-2%,CN1CCN(C2=Nc3cc(F)ccc3Cc3ccccc32)CC1
-2%,Cc1cc(OCCn2cncn2)ccc1[N+](=O)[O-]
-4%,CCOc1ccc(CNC(=O)c2cccc(Nc3nc4ccccc4n4nnnc34)c2)cc1OC

Arranged by formula weight (high to low): some entries from above
VDR inhibitor,SMILES
0%,COc1ccc(-c2cc(-c3cccs3)c(C#N)c(SCC(=O)NCc3ccccc3OC)n2)cc1
-4%,CCOc1ccc(CNC(=O)c2cccc(Nc3nc4ccccc4n4nnnc34)c2)cc1OC
-6%,CCn1c(C)c(C(C)=O)c(N2CCN(c3ccc(F)cc3)CC2)nc1=S
-5%,CCOC(=O)C1CCN(CC(=O)c2c(C)[nH]c3ccccc23)CC1
10%&-4%,O=C(COC(=O)C12CC3CC(CC(C3)C1)C2)NCc1ccco1
